MLL AF4-AF9 inh: MLL-AF4/AF9 protein interaction inhibition; 350,000 tested, 0.47% active; AlphaScreen, biotin-AF4 peptide binding to FLAG-AF9; P42568; AID 651704; inhibition, % at 10 µM;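 active = every replicate reaching a set inhibition limit, whatever the replicate mean, cut at about 25% in these data; inconclusive = mean inhibition reaches that limit but some replicates miss it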;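 note: 0% = plate neutral control median and 100% = total signal loss; the record names both 10 and 1 µM as test concentration; the first replicate is given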
Target sequence (P42568 whole entry, looked up): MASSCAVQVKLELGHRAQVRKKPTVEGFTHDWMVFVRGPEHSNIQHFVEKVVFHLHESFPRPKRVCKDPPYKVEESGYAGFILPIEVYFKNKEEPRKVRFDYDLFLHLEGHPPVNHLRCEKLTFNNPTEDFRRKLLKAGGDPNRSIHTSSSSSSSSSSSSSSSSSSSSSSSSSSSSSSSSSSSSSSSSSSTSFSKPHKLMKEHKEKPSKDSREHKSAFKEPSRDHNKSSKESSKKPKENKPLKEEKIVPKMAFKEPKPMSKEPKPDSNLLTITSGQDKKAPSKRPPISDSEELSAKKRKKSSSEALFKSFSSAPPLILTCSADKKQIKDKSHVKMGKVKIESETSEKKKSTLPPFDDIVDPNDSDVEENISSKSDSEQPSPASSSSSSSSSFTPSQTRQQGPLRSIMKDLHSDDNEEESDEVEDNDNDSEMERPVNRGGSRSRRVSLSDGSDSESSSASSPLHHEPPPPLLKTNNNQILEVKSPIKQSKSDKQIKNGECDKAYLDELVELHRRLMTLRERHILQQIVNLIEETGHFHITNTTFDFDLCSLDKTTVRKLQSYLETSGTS
Beta apoptosis: beta cell apoptosis inhibition | protection from apoptosis, % (concentration not given with the values) | INS-1E cytokine-induced death, ATP luminescence, 48 h; percent of positive-control rescue, neutral wells zero | 300,000 tested, 0.8% active;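 active = all replicates at 75% or more, or half of them and the mean; inconclusive = half reach 75% but not the mean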;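 note: 0% = cytokine-treated negative control wells and 100% = positive control rescue; higher means more ATP so stronger rescue from cytokine killing; wells of about 40 µL received 100 nL stock; the first replicate is given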
RanGTP-Impb inh: inhibitors of RanGTP-importin-beta interaction, primary screen, biochemical, FRET, CFP-Ran, YFP-importin-beta, homogeneous | 300,000 tested, 1.1% active | AID 2216 | cell-free CFP-Ran/YFP-importin-beta FRET ratio | inhibition, % (no concentration beside the values);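 active = most replicates above 15%; inconclusive = exactly half above 15%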;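 note: 0% = DMSO wells and 100% = Ran loaded with GDP instead of GTP; wells of about 40 µL received 100 nL stock; the first replicate is given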
Calb FLC: C. albicans growth modulation with fluconazole; C. albicans CaCi-2 (fluconazole-resistant clinical isolate) + fluconazole, Alamar Blue growth, 48 h; growth inhibition, % (concentration not given with the values); 300,000 tested, 0.57% active; AID 1979;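 active = most replicates above 75%; inconclusive = exactly half above 75%; inactive = most below 75%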;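 note: all wells also contain fluconazole at 8 µg/ml as a sub-toxic cotreatment; 0% = median of DMSO wells and 100% = median of geldanamycin control wells; wells of about 8 µL received 7.5 nL stock; the first replicate is given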
T cruzi repl: blocks replication of Trypanosoma cruzi; T. cruzi beta-gal in NIH3T3, luminescence, 90 h; inhibition, % (no concentration beside the values); 300,000 tested, 1.4% active; AID 1885;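 active = mean inhibition across valid replicates above about 55%, limit read from the data; inconclusive = mean below that limit but half or more replicates reach it; inactive = mean below it, under half of replicates reach it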;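 note: signal also drops with host cell toxicity which is not excluded here; 0% = plate median of DMSO wells and 100% = zero luminescence signal; higher percent means less beta-gal luminescence so fewer parasites; stock transfer was 50 nL into about 50 µL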
rRNA inh HTS: selective bacterial rRNA inhibition in E. coli; AID 720706; GFP signal change (wild-type ribosome), % (concentration not given with the values); 350,000 tested, 1.6% active; E. coli WT GFP vs humanized-ribosome RFP mutants, fluorescence, 24 h; stronger effect = lower value; DMSO median 0, no signal -100;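 active = significant combined selectivity score with lowered wild-type GFP, culture density cut under 30%, mutant RFP and density less affected; inactive = any of these conditions unmet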; note: one replicate is shown; some compounds called inactive have numbers as strong as hits
FGF22 binding: FGF22 (human) thermal shift binding; Q9HCT0; recombinant FGF22 thermal shift, SYPRO orange fluorescence; percent of sucrose octasulfate shift, DMSO zero; calls only at 9.99 µM; 340,000 tested, 1.5% active;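 active = melting point raised past a set limit in the mean and every replicate; inconclusive = no clear call; three in four hits are not shown here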
Target sequence (Q9HCT0 whole entry, looked up): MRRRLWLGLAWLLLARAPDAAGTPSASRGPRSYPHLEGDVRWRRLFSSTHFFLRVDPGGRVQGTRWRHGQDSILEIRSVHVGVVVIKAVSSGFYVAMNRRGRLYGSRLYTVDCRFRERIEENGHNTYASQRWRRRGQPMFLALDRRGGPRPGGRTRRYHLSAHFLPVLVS
ALR H2O2 inh: inhibitors of human sulfhydryl oxidase ALR | P55789 | purified ALR, DTT oxidation, H2O2 HRP-luminol luminescence | inhibition, % (concentration not given with the values) | 290,000 tested, 3.8% active | AID 485317;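 active = mean and each replicate at 75% or more; inconclusive = only one of the two met; inactive = neither met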;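 note: stock transfer was 7.5 nL into about 7.5 µL; 0% = neutral wells and 100% = wells with inactivated enzyme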
Target sequence (P55789 whole entry, looked up): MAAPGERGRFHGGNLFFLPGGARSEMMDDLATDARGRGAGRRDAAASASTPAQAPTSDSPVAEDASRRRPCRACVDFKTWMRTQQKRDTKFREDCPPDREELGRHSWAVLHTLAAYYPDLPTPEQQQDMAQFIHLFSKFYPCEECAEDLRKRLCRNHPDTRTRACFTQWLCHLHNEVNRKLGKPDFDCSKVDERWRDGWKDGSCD
rRNA inh HTS OD600: second read-out of rRNA inh HTS, no call of its own (marks repeat the call); OD600 change, %; measured here: OD600 growth;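 optical density of the mix in the first replicate; 0 = DMSO median and -100 = no signal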
rRNA inh HTS RFP: also measured in rRNA inh HTS; calls as there; RFP signal change, %; measured here: RFP humanized mutant strains;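 first replicate; 0 = DMSO median and -100 = no signal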
* = called active by the depositor; i = inactive; ? = inconclusive; . = not tested or not shown. Some of the compounds tested. The share of hits here may be higher or lower than overall.

SMILES	MLL AF4-AF9 inh	Beta apoptosis	RanGTP-Impb inh	Calb FLC	T cruzi repl	rRNA inh HTS	rRNA inh HTS OD600	rRNA inh HTS RFP	FGF22 binding	ALR H2O2 inh
Cc1ccc(-c2nc(-c3nccc4ccccc34)oc2-c2ccccc2)cc1	2.1	-10	1.1	5	-2	-8	-5	1.2	i	2
CCOc1ccc(C(=O)NCC(=O)OCc2c(C)noc2C)cc1	7.0	-6	-1.7	3	-13	12	7	0.6	i	4
CCCCOC(=O)CN1C(=O)c2ccc(C(=O)OCCCC)cc2C1=O	.	0	10	-2	-12	.	.	.	.	-45
COC(=O)c1cc(-c2ccccc2)on1	.	-4	0.5	1	1	.	.	.	.	6
Cc1cc(NC(=O)CCN2CCC(C(N)=O)CC2)ccc1Br	.	-3	59*	12	-7	.	.	.	.	-10
COc1ccc(N2CCN(S(=O)(=O)c3cccc4nsnc34)CC2)cc1	.	0	-1.8	1	-9	.	.	.	.	73
CCCn1c(C(=O)OC)cc2c1ccn2-c1ccc(F)cc1	.	8	1.6	-31	11	.	.	.	.	-10
Cc1ccc(COC(=O)CCCN=C2NS(=O)(=O)c3ccccc32)cc1	0.6	6	2.5	-1	-3	-4	-24	-1.8	i	1
O=C(OC(C(=O)NCc1cccs1)c1ccccc1Cl)c1ccco1 (stereo not drawn)	1.1	-6	0.0	-23	7	-6	1	6.6	i	-22
O=c1cc(-c2ccc(F)cc2)oc2ccccc12	.	0	8.1	-2	-3	.	.	.	.	-6
COC(=O)[C@@H](NC(=O)NCCC1=CCCCC1)C(C)C	0.3	-6	-4.3	-4	-19	9	0	2.4	i	2
CCOC(=O)C(=O)Nc1nnc(C2CCCCC2)s1	.	-1	8.2	1	8	.	.	.	.	-3
Cc1ccc(NC(=O)CCNS(=O)(=O)c2ccc(OC(F)(F)F)cc2)c(O)c1	-1.8	0	1.2	-8	-9	3	19	0.5	i	-12
N#CC1=C(N)SC(N)=C(C#N)C1C1C=CCCC1 (stereo not drawn)	.	7	-0.6	23	-6	.	.	.	.	6
CCCc1cc(-n2ccnc2)n2c(nc3ccccc32)c1C#N	.	-1	?	44	-31	.	.	.	.	-12
COc1ccc(C(=O)CSc2nnc(-c3cnccn3)n2Cc2ccco2)cc1	.	-3	-4.3	9	-4	.	.	.	.	19
O=C(/C=C/c1ccc(Br)o1)NCc1ccccc1	-2.4	1	-1.4	9	13	7	5	-2.4	i	5
O=C(COc1ccc(Cl)cc1)Nc1ccc2c(c1)nc1n2CCOC1	-4.0	-4	?	-25	-5	-8	-8	-1.2	i	-7
COc1cc(/C=C/c2ccc3cccc(OC)c3n2)c(O)c([N+](=O)[O-])c1	0.5	28	0.4	4	-17	4	37	-0.5	i	4
O=C1N(c2ccc(Cl)c(Cl)c2)CN(Cc2ccccc2)CN1n1cnnc1	.	-2	-2.2	6	-4	-2	-2	0.7	.	-7
Cc1ccc(S(=O)(=O)N(C)c2ccccc2C(=O)Nc2ccc(F)cc2F)cc1	-15	-9	2.1	0	0	-28	-22	-4.5	i	12
Cc1ccc(C2CC(=O)Nc3sc(C(N)=O)c(N)c32)cc1 (stereo not drawn)	.	3	0.7	12	-18	.	.	.	.	-1
O=C1CCN(Cc2ccc(O)cc2)CCN1[C@H](CO)Cc1ccccc1	1.3	0	-0.9	-1	-8	6	9	-6.5	i	17
Cc1ccc(N(C(=O)Cn2nnc3ccccc32)C(C(=O)NCc2ccccc2)c2ccccn2)cc1 (stereo not drawn)	.	.	-0.8	-3	-10	.	.	.	.	6
CC(NC(=O)CC(c1ccccc1)c1cc(Cl)ccc1O)c1ccccc1 (stereo not drawn)	-1.3	-1	5.5	-5	10	-37	-70	-8.1	i	0
Additional entries:
SMILES	MLL AF4-AF9 inh	Beta apoptosis	RanGTP-Impb inh	Calb FLC	T cruzi repl	rRNA inh HTS	rRNA inh HTS OD600	rRNA inh HTS RFP	FGF22 binding	ALR H2O2 inh
CN1c2ccccc2C(=O)/C(=C\Nc2ccc(F)cc2F)S1(=O)=O	6.2	0	3.2	-5	6	-13	6	0.6	i	-6
Cc1ccc(O)c(Nc2c3ccccc3nc3ccccc23)c1	7.2	15	24*	-13	16	5	-27	-4.7	i	99*
COc1cccc(N2CCN(C3CC(=O)N(c4ccc(C)c(Cl)c4)C3=O)CC2)c1 (stereo not drawn)	-48	-4	-4.8	-4	-19	8	14	0.0	i	6
C=CCn1c(C)c(/C=C/c2cc[n+](C)cc2)c2ccccc21	4.1	97*	-202	-10	74*	112	-22	61	i	74
CN(C(=O)CCn1c(=S)oc2ccccc21)c1ccc(F)cc1	1.4	2	-4.2	-5	-5	-1	-8	-0.5	i	10
O=C(Cc1cccs1)N/N=C/C=C/c1ccccc1	-0.3	.	-1.5	-17	1	6	-2	3.2	i	-7
CCn1c(C)nc2cc(C(=O)N=Nc3c(O)[nH]c4c(C)cc(C)cc34)ccc21	0.1	20	-0.5	-3	27	14	17	-5.9	i	3
CCc1ccc(NC(=O)Cn2nc(C(F)(F)F)c3c2CCC3)cc1	.	-12	-5.4	8	21	.	.	.	.	0
O=C1NCCO1	-3.5	2	.	.	.	27	22	1.7	i	-8
Cc1ccc(NC(=O)/C=C/C(=O)O)c([N+](=O)[O-])c1	.	-8	3.9	-6	-10	.	.	.	.	4
CCOC(=O)c1c(C)c(C(=O)NCc2ccco2)c(C)n1C	0.6	-4	2.5	-1	-5	9	8	3.5	i	1
CC1(C)OC(=O)C(=CNCCc2ccc(O)cc2)C(=O)O1	2.2	-3	-2.7	-5	-12	5	16	0.8	i	88*
Brc1cnc(N2CCCC2)nc1N1CCOCC1	.	-18	0.8	4	0	.	.	.	.	-4
CCCCN(CC)S(=O)(=O)c1ccc(C(=O)N=c2sc3cc(NC(C)=O)ccc3n2C)cc1	0.3	-1	-5.1	-15	-1	.	.	.	i	-3
Nn1cnc2sc3c(c2c1=O)CCC3	.	-1	4.1	-3	-4	.	.	.	.	.
O=[N+]([O-])c1ccc(NCc2ccccc2)nc1	7.5	-2	5.2	4	23	6	2	35	i	-7
Cc1ccc(C(=O)NC(=S)Nc2ccc3[nH]c(=O)[nH]c3c2)cc1	0.3	7	-0.1	24	2	16	8	7.1	i	3
CCOc1ccccc1N(CC(=O)Nc1ccc(OC)c(OC)c1)S(=O)(=O)c1ccccc1	1.9	1	-1.0	0	8	4	6	-0.2	i	-9
COC(=O)CC(CP(=O)(O)CN(C)C=O)C(=O)OC (stereo not drawn)	.	1	3.0	0	-1	11	2	-1.2	i	-2
Cn1c(=O)c2c(ncn2CC(=O)N2CCN(c3ccc([N+](=O)[O-])cc3)CC2)n(C)c1=O	1.6	5	1.9	-5	-7	3	5	-0.8	i	1
COc1ccc(/C=N/NC(=O)CN2CCS(=O)(=O)CC2)cc1	.	-6	-0.4	-1	-6	.	.	.	.	-4
CC(=O)C(Sc1nnnn1-c1ccccc1)C(C)=O	-2.1	.	-2.8	-6	-21	3	10	-2.1	i	4
O=C(O)CCCCCN1C(=O)/C(=C\c2cn(-c3ccccc3)nc2-c2cccs2)SC1=S	-3.2	1	-20	42	14	8	5	-0.3	i	-2
N/C(=N\OC(=O)C1CCCCC1)c1ccccn1	.	0	-1.3	12	1	.	.	.	.	53
Cc1ccsc1/C=N/NC(=O)c1ccc2nc[nH]c2c1	.	-3	-0.5	1	4	.	.	.	.	2
Continued:
SMILES	MLL AF4-AF9 inh	Beta apoptosis	RanGTP-Impb inh	Calb FLC	T cruzi repl	rRNA inh HTS	rRNA inh HTS OD600	rRNA inh HTS RFP	FGF22 binding	ALR H2O2 inh
Cc1ccc(S(=O)(=O)c2nc(-c3ccccc3)oc2N2CCC(C(N)=O)CC2)cc1	6.1	11	2.1	-2	-3	16	10	-2.9	i	10
CC(C)CN(CCNC(=O)CN1C(=O)CSc2ccc(S(=O)(=O)N3CCOCC3)cc21)CC(C)C	-0.7	-5	1.6	-40	-9	11	3	2.5	.	-3
COc1cc(/C=N/n2cnnc2)ccc1OS(=O)(=O)c1ccccc1[N+](=O)[O-]	3.5	-3	-1.0	-2	-4	-19*	10*	-2.2*	i	-5
O=C(NNC(=O)c1ccc(Br)s1)c1csc(N2CCOCC2)n1	-0.9	3	.	.	.	16	17	-1.4	i	.
CCc1ccc(Sc2cc(C(=O)NCCN3CCOCC3)c3ccccc3n2)cc1	.	-7	-1.1	-3	2	.	.	.	.	-11
CC(C)=C(NC(=O)c1ccccc1)C(=O)NC(Cc1ccccc1)C(=O)O (stereo not drawn)	-1.7	10	3.8	-5	-12	.	.	.	i	2
COc1ccc(S(=O)(=O)N2CCOC2CNC(=O)C(=O)NCc2ccc(F)cc2)cc1 (stereo not drawn)	-1.1	-1	1.7	5	-4	-2	-3	2.9	i	-8
Cc1cc(Nc2cc(F)ccc2C)n2nc(C)nc2n1	-0.3	1	-0.8	-3	0	3	10	0.8	i	-13
CCN(CC)CCNc1nc2ccccc2n1C	.	-4	1.2	0	-22	.	.	.	.	-8
Cc1ccc(Cn2nnnc2CN2CCC(NC(=O)c3ccccc3F)CC2)cc1	.	6	5.5	11	-31	.	.	.	.	-4
Cc1ccc(N(C)S(=O)(=O)c2cccc(C(=O)Oc3ccc4c(C)cc(=O)oc4c3)c2)cc1	-5.6	.	-2.5	5	4	-2	-14	-3.4	i	6
CCCn1nc(C(=O)OCn2nnc3ccccc3c2=O)c2ccccc2c1=O	0.3	-4	2.3	10	7	5	16	-2.3	i	.
Cc1ccccc1C(=O)OCn1nnc2ccccc2c1=O	1.5	-9	-0.1	0	7	-2	-23	-2.2	i	.
NC(N)=Nc1nc(CSCC/C(N)=N/S(N)(=O)=O)cs1	-3.8	.	9.0	-1	-9	.	.	.	i	-1
O=C(NCc1ccccc1)c1nc(S(=O)(=O)Cc2ccccc2)ncc1Cl	2.3	-10	1.3	-12	2	-24*	-1.8*	-1.5*	i	-3
COc1ccc(CCNC(=O)CN2C(=O)CCSc3ccccc32)c(OC)c1	-8.0	-1	-2.1	-2	16	12	8	3.4	i	-2
N#CC1(NC(=O)COC(=O)c2cccc(-n3cnnn3)c2)CCCCC1	-30	-4	-2.4	.	-1	9	18	-1.0	i	-8
Cc1ccc2cc(CN(CC3CCCO3)C(=S)NCc3ccco3)c(=O)[nH]c2c1C (stereo not drawn)	-0.3	-6	0.8	-1	4	-8	-10	15	i	.
Cc1[nH]c2ccccc2c1C(=O)CN1C(=O)C(=O)N(C2CCCC2)C1=O	-0.9	-5	0.0	0	3	.	.	.	i	-1
Cc1cc2nc(-c3ccc(SCc4ccc(C#N)cc4)nc3)[nH]c2cc1C	-31	9	-2.1	-4	56*	-6	4	6.7	i	1
Cc1cc(N)ccc1-n1c(C)ccc1C	.	-7	2.7	-11	18	.	.	.	.	17
O=c1cnnc(Nc2cccc(F)c2)[nH]1	-8.1	-3	2.2	-2	-6	15	27	4.1	i	-6

A portion from further up:
SMILES	MLL AF4-AF9 inh	Beta apoptosis	RanGTP-Impb inh	Calb FLC	T cruzi repl	rRNA inh HTS	rRNA inh HTS OD600	rRNA inh HTS RFP	FGF22 binding	ALR H2O2 inh
Cc1cc(N)ccc1-n1c(C)ccc1C	.	-7	2.7	-11	18	.	.	.	.	17
O=c1cnnc(Nc2cccc(F)c2)[nH]1	-8.1	-3	2.2	-2	-6	15	27	4.1	i	-6
